# TAR Tat displ: HIV-1 TAR-Tat binding disruption; HIV-1 TAR RNA, Tat peptide displacement FRET; active compounds read high; z-score (concentration not given with the values); hit rate 0.6% among 100,000; AID 1259389;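 note: score is relative to mean and SD of negative controls; some compounds called inactive have numbers as strong as hits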
# CDC25B CDK2 inh: human CDC25B-CDK2/CyclinA binding inhibition; P30305+P24941; HTRF CDC25B-CDK2/CyclinA binding, anti-His/anti-Flag; active compounds read high; z-score (test concentration not listed); hit rate 0.72% among 94,000;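 note: score is relative to mean and SD of negative controls; strong numbers were not always called active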
# * = called active by the depositor; · = no result given.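 Rule for the calls: active = z-score from 3 up in half or more of its runs; inactive = the rest.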
SMILES,TAR Tat displ,CDC25B CDK2 inh
O=C1/C(=C/c2ccsc2)CC/C1=C\c1cccs1,·,-1.1
Cc1cc(C)c2c3c(sc2n1)C(=O)N(C(C)(C)C)C(c1cccs1)N3 (stereo not drawn),2.1,-1.3
COC(=O)c1sc(NC(=O)CC(C)C)c(C(=O)OC)c1C,-2.5,-2.2
Cc1n[nH]c(=O)c2nn(-c3ccc(Cl)cc3)c(C)c12,1.7,-0.39
COCCNC(=O)C1CCN(c2nnc(-n3cccc3)s2)CC1,0.12,0.05
COc1nc(-c2ccc(C)cc2)ccc1-c1noc(-c2ccccc2)n1,-0.78,2.4
CC(=N/NCCC#N)/C(=N\OC(=O)c1ccc([N+](=O)[O-])cc1)C(=O)Nc1ccccc1,·,-0.1
CC(C)c1ccc2c(c1)-c1ccccc1S(=O)(=O)N2CC(=O)NCc1ccc2c(c1)OCO2,-0.41,-0.32
CC1CCN(S(=O)(=O)c2cn(C)cn2)CC1,1.6,·
Clc1cccc(COc2ccccc2-c2nnc(-c3ccccc3)o2)c1,-0.05,·
CSc1cccc(NC(=O)C2c3ccccc3C(=O)N(C)C2c2cn(C)c3ccccc23)c1 (stereo not drawn),·,-2.7
Cc1oc(-c2ccccc2)nc1CSc1nncn2c1cc1sccc12,3.7,·
O=S1(=O)C[C@H](N2CCN(c3ccccc3)CC2)[C@@H](S(=O)(=O)c2ccccc2)C1,-0.59,-1.9
CC(=O)N=c1sc(S(N)(=O)=O)nn1C,-0.46,·
CCN(CC)CCCNC(=O)C(=O)c1c(C)n(C)c2ccccc12,·,-1.4
Clc1cccc(-n2ncc3c(N4CCCCC4)ncnc32)c1,1.7,·
CC(=O)N1c2ccc(S(=O)(=O)NC3CCCCC3)cc2CC1C (stereo not drawn),2.7,·
O=S(=O)(CCO/N=C/c1ccco1)c1ccc(Cl)cc1,·,-1.8
CCCCc1nn2c(=O)cc(CSc3nnc(NC(=O)CC)s3)nc2s1,0.45,·
CSc1ccccc1N1C(=O)C2CC(C)=C(C)CC2C1=O (stereo not drawn),-0.84,-0.45

# Reprinted at random: two entries already listed, in no set order.
SMILES,TAR Tat displ,CDC25B CDK2 inh
CC(C)c1ccc2c(c1)-c1ccccc1S(=O)(=O)N2CC(=O)NCc1ccc2c(c1)OCO2,-0.41,-0.32
Clc1cccc(-n2ncc3c(N4CCCCC4)ncnc32)c1,1.7,·

# Continuation.
SMILES,TAR Tat displ,CDC25B CDK2 inh
CSc1nsc(SC)c1NC(=O)Nc1ccccc1C,0.6,-0.23
CCOC(=O)C1=C(C)NC2=C(C(=O)CCC2)C1c1ccc(OC)c(O)c1 (stereo not drawn),0.15,-0.86
O=C(O)CC1(CC(=O)O)CCCC1,0.76,-0.14
Cn1cccc1Cc1nnc(SCC(=O)N2CCOCC2)n1-c1ccc(F)cc1,-1.3,-2
CN1C(=O)c2cccc3c(S(=O)(=O)Nc4ccccc4C(=O)O)ccc1c23,-0.9,-2.2
CCOC(=O)Nc1ccc2c(c1)nc1n2CCN(C(C)C)C1,-8.7,0.01
CN1C(C(=O)c2ccccc2)=C(OC(=O)c2ccccc2)c2ccccc2S1(=O)=O,·,-0.08
CCCN1CCN(C(=O)CCS(=O)(=O)c2cc3c(cc2Cl)NC(=O)CO3)CC1,3.8,·
Cc1ccc(NC(=O)N=S(C)(=O)c2ccc(C(F)(F)F)cn2)cc1 (stereo not drawn),·,-1.5
Clc1ccc(-c2noc(CN3CCCCC3)n2)cc1,-0.5,-1.3
COC(=O)c1ccccc1N=NNc1cccc(C(F)(F)F)c1,·,0.22
Cc1ncc([N+](=O)[O-])n1CC(=O)Nc1ccc2c(c1)OCO2,2.3,-3.2
NC(=O)C1CCN(C(=O)c2ccc(N3CCOc4ccccc43)s2)CC1,0.26,·
Fc1ccc(OCCCCN2CCOCC2)cc1,-0.4,0.68
CCOC(=O)c1c(NC(=O)CCNS(=O)(=O)c2ccc(Cl)cc2)sc2c1CCCC2,·,-0.1
CN(C1CCCCC1)S(=O)(=O)N1CCCC(C(=O)N2CCN(c3ncccn3)CC2)C1 (stereo not drawn),0.33,·
Cc1cc(C)cc(Nc2cc(C)ncn2)c1,0.03,-1.2
Cc1cc(O)c(C(c2cccnc2)c2c(O)cc(C)oc2=O)c(=O)o1,·,-1.5
COc1cc(NC(=O)CC2Sc3ccccc3NC2=O)c(OC)cc1Cl (stereo not drawn),0.64,-0.02
COc1ccccc1OCCN1C(=O)C(=O)c2cc(Br)cc(C)c21,1.1,-0.91

# Complete entries as entered above. Screens in order: TAR Tat displ	CDC25B CDK2 inh
# Entry for CCOC(=O)C1=C(C)NC2=C(C(=O)CCC2)C1c1ccc(OC)c(O)c1 (stereo not drawn) → 0.15	-0.86
# Entry for CSc1nsc(SC)c1NC(=O)Nc1ccccc1C → 0.6	-0.23
# Entry for Cc1cc(C)cc(Nc2cc(C)ncn2)c1 → 0.03	-1.2
# Entry for CCOC(=O)c1c(NC(=O)CCNS(=O)(=O)c2ccc(Cl)cc2)sc2c1CCCC2 → ·	-0.1
# Entry for Fc1ccc(OCCCCN2CCOCC2)cc1 → -0.4	0.68

# Additional records.
SMILES,TAR Tat displ,CDC25B CDK2 inh
CN(C)CCCN(C(=O)c1nc2ccccc2s1)c1nc2c(F)cccc2s1,-0.21,·
COc1ccc(-c2nn3c(Cn4nnc5ccccc54)nnc3s2)cc1,0.9,-4.2
COC(=O)c1cc2oc3ccccc3c2n1Cc1cccc(F)c1,0.42,5.4
Cc1ccc(C)c(NS(=O)(=O)c2ccc(-c3cnc(C4CC4)o3)cc2)c1,2,·
c1ccc(CN2CCC(Nc3nc(-c4ccccc4)no3)CC2)cc1,0.1,·
c1ccc(CCN2CN(CCCN3CCOCC3)c3nc4ccccc4n3C2)cc1,-0.46,-1.3
O=C1c2cccnc2C(=O)N1CCc1ccc(S(=O)(=O)NCc2ccc(Cl)cc2)cc1,-0.5,·
Cc1cc(Cl)ccc1NC(c1cccnc1)c1ccc2cccnc2c1O (stereo not drawn),2.5,2.6
CN(CC(=O)Nc1ccccn1)S(=O)(=O)c1ccc2c(c1)CCC(=O)N2,·,0.4
COc1ccc(C(=O)Oc2ccc3oc(=O)sc3c2)cc1OC,·,-3.6
O=C(NC1CCCCCC1)[C@H](CSCc1ccccc1)N1Cc2ccccc2C1=O,·,-0.74
O=C(O)Cn1c(CCS(=O)(=O)c2ccc(Br)cc2)nc2ccccc21,0.19,-2.4
Cc1noc2ncnc(N3CCCC(C(=O)O)C3)c12 (stereo not drawn),0.37,-1.3
CCOC(=O)Cc1csc(NC(=O)CSCC(=O)O)n1,·,-2.9
CCOc1ccc(S(=O)(=O)N2CCSC2c2ccc(Br)cc2)cc1 (stereo not drawn),0.92,-0.24
Cc1cc(C)c2oc(C(=O)NCc3ccncc3)cc(=O)c2c1,-0.3,-1.4
CCN1CCCC1CNC(=O)c1cc(Cl)c(NC(=O)C2=CSCCO2)cc1OC (stereo not drawn),1.2,·
CCCN(Cc1ccc(F)cc1)Cc1cc(=O)c2cc(C)ccc2[nH]1,1.2,·
Cn1c(=O)c2c(nc(CN3CCc4ccccc4C3)n2Cc2c(F)cccc2Cl)n(C)c1=O,·,-1.9
COc1ccc(NC(=O)NC2=C(C#N)C(C)(C)Cc3ccccc32)cc1,0.73,-1.2
Cc1cc2c(cc1S(=O)(=O)N1CCc3ccccc3C1)OCCN2C,2.1,·
CCCCCn1c(=O)c(-c2nc3ccccc3c(=O)[nH]2)c(O)c2ccccc21,2,·
CCCCn1c(=O)[nH]c2c(c1=O)C(CC)(CC)Cc1ccccc1-2,1.5,-1.4
Cc1ccc(Cl)cc1NC(=S)NCCNc1nccc(C(F)(F)F)n1,·,0.19
Clc1ccc(-c2cnc3nonc3n2)cc1,0.63,0.07
CCOCCCNC(=O)CCCn1nc(C)c2sc3ccccc3c2c1=O,2.3,-1.5
CCOc1ccc(-c2nc(-c3ccc4c(c3)nc(C)c(=O)n4C)no2)cc1,0.32,·
Cn1c(C(=O)Nc2ccccc2F)c(N2CCCC2=O)c2cc(F)ccc21,-0.25,·
CCOC(=O)c1c(SC)nc2c(Cl)cccc2c1N(C)CCO,·,0.18
COc1ccccc1CNc1c(-c2cccc(Br)c2)nc2ncccn12,-0.78,·
COc1cc(Nc2nc3ccccc3n3cnnc23)cc(OC)c1,0.93,-1.4
Cc1ccc(Cl)cc1-n1ncc2c(NCC(C)O)ncnc21 (stereo not drawn),1.2,·
COc1ccc(S(=O)(=O)N2CCN(Cc3ccc4c(c3)OCO4)CC2)cc1,-0.45,-1.5
Cc1nc(NC(=O)c2cc(=O)c3cc(Cl)ccc3o2)sc1C(=O)OCC(C)C,0.91,2
O=C(Cc1cccc2ccccc12)Nc1ccc2nc(SCC(=O)N3CCCC3)sc2c1,·,-3.3
COc1cccc(-c2nc(=S)c3c([nH]2)Oc2ccc(F)cc2C3)c1,-0.4,0.83
COCCOC(=O)C1=C(C)NC2=C(C(=O)CC(C)(C)C2)C1c1coc2ccccc2c1=O (stereo not drawn),0.37,-1.2
Cc1cccc(-c2nc(SCc3cc(=O)n4c(-c5ccccc5)csc4n3)n[nH]2)c1,-0.42,·
CC(=O)Nc1ccc(-n2sc3c(c2=S)-c2cc(C)ccc2NC3(C)C)cc1,-0.71,-5.6
CCc1cc2c(cc3c(=O)n(CC(=O)NCc4ccccn4)nc(CC)n32)s1,1.7,-1.4

# Brought forward from above: six entries; new compounds follow.
SMILES,TAR Tat displ,CDC25B CDK2 inh
O=C(Cc1cccc2ccccc12)Nc1ccc2nc(SCC(=O)N3CCCC3)sc2c1,·,-3.3
COc1cccc(-c2nc(=S)c3c([nH]2)Oc2ccc(F)cc2C3)c1,-0.4,0.83
COCCOC(=O)C1=C(C)NC2=C(C(=O)CC(C)(C)C2)C1c1coc2ccccc2c1=O (stereo not drawn),0.37,-1.2
Cc1cccc(-c2nc(SCc3cc(=O)n4c(-c5ccccc5)csc4n3)n[nH]2)c1,-0.42,·
CC(=O)Nc1ccc(-n2sc3c(c2=S)-c2cc(C)ccc2NC3(C)C)cc1,-0.71,-5.6
CCc1cc2c(cc3c(=O)n(CC(=O)NCc4ccccn4)nc(CC)n32)s1,1.7,-1.4
O=c1c2ccccc2nnn1Cc1noc(-c2ccco2)n1,-0.01,·
COc1ccc(-n2c(=O)c3c(c4cc(OC)ccc4n3C)n(CC(=O)NCC3CCCO3)c2=O)cc1 (stereo not drawn),0.71,·
CCCn1c(O)c(C#N)c(C)cc1=O,-2.3,3
CCCN(CCC)C(=O)c1c(C)[nH]c(C(=O)OCC)c1C,-0.3,-0.84
Cc1cn2c(=O)cc(COc3c(C)cccc3C)nc2s1,1.4,2.7
CCCS(=O)(=O)N1CCN(S(=O)(=O)c2ccc(OC)cc2)CC1,·,-1.1
O=C(CSc1nc(-c2ccccc2)nc2cc(=O)[nH]n12)Oc1ccc(Cl)cc1,1.3,·
Cc1noc2ncnc(N3CCCC(C(=O)NCCC4=CCCCC4)C3)c12 (stereo not drawn),1.7,·
C=CCOc1ccccc1/C=C1\N=C(c2ccc3ccccc3c2)OC1=O,·,-0.73
O=C(NC(=S)Nc1ccc(O)c(-c2nc3ccccc3o2)c1)c1cccc(Cl)c1,·,-3
O=C(Nc1nnc(-c2ccccc2)o1)c1ccc2c(c1)OCCO2,0.43,·
Cc1ccc(Cl)cc1-n1ncc2c(N3CCN(C)CC3)ncnc21,1.9,·
Cc1ccc(S(=O)(=O)c2nc(S(=O)(=O)c3ccccc3)sc2NCc2ccccn2)cc1,1.8,0.49
Cc1ccc(C(=O)CSc2ncn[nH]2)c(C)c1,0.87,-2.2
CCC1Cn2c(C(=O)O)cc3cccc(c32)O1 (stereo not drawn),0.85,0.75
O=C(c1noc2c1CSc1ccccc1-2)N1CCc2ccccc2C1,1.2,-0.93
Cc1ccc(/C(O)=C2/C(=O)C(=O)N(CCCN(C)C)C23C(=O)N(C)c2ccccc23)cc1F (stereo not drawn),-0.31,0.54
O=C(Nc1ccccc1)c1oc2ccccc2c1NC(=O)c1nn(-c2ccc(F)cc2)ccc1=O,0.21,-0.32
COc1ccc(N2C(=O)CC3(CCCCC3)CC2=O)cc1OC,·,-1.9
O=C(Nc1cccnc1)C1=Cc2sc3c(c2CS1)CCCC3,-1.1,·
COCCn1c(C)nc2cc(C)c(C)cc21,-0.37,-0.26
O=C(c1ccc(Br)cc1)N1CC2C3CCC(O3)C2C1 (stereo not drawn),·,-1.2
O=C1C2CCCN2C(c2cccc(Br)c2)N1c1ccc(F)cc1 (stereo not drawn),0.75,-1.2
CCOC(=O)N1CCN(c2c(-c3ccc(C(C)C)cc3)c(=O)c2=O)CC1,1.5,·
O=C1c2ccccc2C(=O)N1Oc1ccc([N+](=O)[O-])c([N+](=O)[O-])c1,·,0.14
COc1ccc(C2=NC(C)(C)CO2)cc1OC,·,-2.4
O=c1c2cn(Cc3ccccc3)c3ccccc3c-2nn1Cc1ccc(F)cc1,-0.36,·
CN1C(C(=O)NCc2cccs2)=CC(c2ccc3c(c2)OCO3)=NS1(=O)=O,2,-0.95
COc1ccc(-c2nc3n(n2)C(c2cc(OC)ccc2OC)C2=C(CCCC2=O)N3)cc1 (stereo not drawn),0.02,-1.4
CCC(CO)NC(=S)Nc1ccsc1C(=O)OC (stereo not drawn),·,0.24
CCc1c(C)nc2ncnn2c1NCc1ccc2c(c1)OCO2,-0.06,-1.2
Cc1nc2c(C)cccn2c(=O)c1NC(=O)Cc1ccccc1,0.59,·
CC(=O)Nc1nnc(S(=O)(=O)N2CCOCC2)s1,2.9,-1.7
CCCNC(=O)C1CCN(c2ncnc3c2nc2n3CCCCC2)CC1,1.6,·
O=C(Nc1ccccc1)C1=Cc2cc(Br)ccc2OC=C1,0.39,-0.12
CC(C)C(=O)NC(c1cccs1)c1cc(Cl)c2cccnc2c1O (stereo not drawn),-4,-0.34
CN1CCN(CCNC(=O)C2CCCN(c3nnc(-n4cccc4)s3)C2)CC1 (stereo not drawn),1.9,·

# Given as tab-separated lines: 3 of the compounds above.
molecule	TAR Tat displ	CDC25B CDK2 inh
O=c1c2cn(Cc3ccccc3)c3ccccc3c-2nn1Cc1ccc(F)cc1	-0.36	·
CN1C(C(=O)NCc2cccs2)=CC(c2ccc3c(c2)OCO3)=NS1(=O)=O	2	-0.95
COc1ccc(-c2nc3n(n2)C(c2cc(OC)ccc2OC)C2=C(CCCC2=O)N3)cc1 (stereo not drawn)	0.02	-1.4

# An unsorted share of the library (roughly 0.89% active in at least one column).
